VDR inh = Inhibitors of the vitamin D receptor (VDR): qHTS | 400,000 tested, 0.93% active | Vitamin D3 receptor (Homo sapiens), P11473 | AID 504847, 2011 | VDR-SRC2-3 peptide fluorescence polarization, 2 h | Potency, µM, for inactives: max response, negative = inhibition, actives largely listed as inhibitors; active = well fitted inhibition curve with a large enough effect; inconclusive = small, poorly fitted or top-dose-only effect, or another doubt; inactive = no such curve, though single readings can be large or run the other way; note: series mostly up to about 120 µM
Target sequence (P11473 whole entry, looked up): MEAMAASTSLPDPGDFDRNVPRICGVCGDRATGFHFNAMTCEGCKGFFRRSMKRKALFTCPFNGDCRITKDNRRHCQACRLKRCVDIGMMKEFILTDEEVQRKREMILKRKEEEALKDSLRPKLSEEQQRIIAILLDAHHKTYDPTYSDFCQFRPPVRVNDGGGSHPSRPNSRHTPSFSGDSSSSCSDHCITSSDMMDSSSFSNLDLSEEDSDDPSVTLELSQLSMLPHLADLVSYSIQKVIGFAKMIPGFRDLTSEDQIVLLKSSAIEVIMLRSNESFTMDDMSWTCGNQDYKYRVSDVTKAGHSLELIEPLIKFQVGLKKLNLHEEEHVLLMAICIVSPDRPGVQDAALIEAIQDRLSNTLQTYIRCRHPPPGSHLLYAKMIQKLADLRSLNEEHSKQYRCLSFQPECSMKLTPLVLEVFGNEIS
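Signal is fluorescence polarization, reporting how far test compounds block the interaction of VDR with the SRC2-3 coregulator peptide after a 2 h room-temperature incubation.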
The depositor's hits bear a star; ? = inconclusive; & = joins results of further samples; [ ] = remark or other dose. % is set by controls: 0 for no effect and ±100 for the full control effect; potency is the fitted concentration of half-maximal effect. Not all compounds are listed; the hit share may differ from the screen's.

A first look, two compounds:
#	VDR inh	SMILES
1	-8%	O=c1c2[nH]c3ccc(Br)cc3c2ncn1Cc1ccncc1
2	-2%	CCOc1ccccc1N(CC(=O)NC(C)(C)C)C(=O)Cn1nnc(-c2ccc(C)o2)n1

Main list, previewed entries included:
#	VDR inh	SMILES
1	-8%	O=c1c2[nH]c3ccc(Br)cc3c2ncn1Cc1ccncc1
2	-2%	CCOc1ccccc1N(CC(=O)NC(C)(C)C)C(=O)Cn1nnc(-c2ccc(C)o2)n1
3	-23%	CCOC(=O)c1cc(CC)sc1NC(=O)c1cccc(N2C(=O)CCC2=O)c1
4	-6%	COc1cccc(-c2c(C(=O)N/N=C/c3cccs3)nnn2-c2nonc2N)c1
5	-9%	CCOc1ccc(C2C(C(=O)c3cccs3)=C(O)C(=O)N2Cc2cccnc2)cc1 (centres undefined)
6	46%[activator]	O=C(CCl)Nc1ccc(Sc2ccc(NC(=O)CCl)cc2)cc1
7	-16%	O=C(NCCCn1ccnc1)C1CCCN(S(=O)(=O)c2cc(Cl)ccc2Cl)C1 (centres undefined)
8	9%	COc1cccc(-n2c(=O)c3sc4ccccc4c3n(CC(=O)Nc3cccc(Cl)c3)c2=O)c1
9	-17%	Fc1ccc(-c2cc(-c3ccccc3)c3c(n2)-c2cc(F)ccc2OC3)cc1
10	-6%&3%&4%	CC#CCC1(C(=O)OC)C(=O)NC[C@H]1c1ccccc1 (some centres undefined)
11	3%	CCN(c1ccccc1)S(=O)(=O)c1cc2c(cc1C)N(C)CCO2
12	1%	CCCCn1c(N)c(N(CCOC)C(=O)c2ccco2)c(=O)[nH]c1=O
13	53%[activator]	O=C(O)C(Cc1ccccc1)N1C(=O)/C(=C/C=C/c2ccco2)SC1=S (centres undefined)
14	18%	O=C(Nc1nnc(CC(=O)N2CCOCC2)s1)c1cccs1
15	3%	O=C(CCNC(=O)c1ccc(Cl)cc1)Nc1ccc(S(=O)(=O)N2CCOCC2)cc1
16	14%	C[C@@H]1CN(Cc2cn(C)nc2-c2cccc(Cl)c2)C[C@H](C)O1
17	-9%	CC(NC(=O)C1CCN(S(=O)(=O)N2CCC3(CC2)OCCO3)CC1)c1ccccc1 (centres undefined)
18	-14%	Cc1[nH]c(=O)c(C#N)c(C)c1Br
19	-5%	CCCN1CCC(=O)N([C@H](CSc2ccc(C)cc2)c2ccccc2)CC1
20	17%	CC1Sc2ccc(C(=O)Nc3ncccc3O)cc2NC1=O (centres undefined)
21	1%	COc1cccc2cc(C(=O)OC(C)C(=O)c3ccc(C)cc3)c(=O)oc12 (centres undefined)
22	-7%	COc1ccc(N2CCN(C(=O)c3oc4ccccc4c3NC(=O)Cc3ccc(OC)c(OC)c3)CC2)cc1
23	-17%	O=c1cc[nH]c2ccc([N+](=O)[O-])cc12
24	5%	CN(C)CCCN(C(=O)c1ccc(S(=O)(=O)N2CCc3ccccc3C2)cc1)c1nc2c(F)cccc2s1
25	10%	Cc1ccc(NC(=O)C(C)OC(=O)Cn2[nH]c(=O)c3ccccc3c2=O)cc1 (centres undefined)
26	-4%	Cc1[nH]c2ccccc2c1C(=O)COC(=O)C1CC(=O)N(Cc2ccccc2)C1 (centres undefined)
27	1%	Cc1cc(C(=O)OCC(=O)N2CC(=O)Nc3ccccc32)c(C)n1-c1ccccc1
28	71µM*	CCN(CC)c1ccc(N=C2C=CC(=O)C=C2NC(C)=O)cc1
29	-4%	CC(=O)c1ccc(OCC(O)CN2CCc3ccccc3C2)cc1 (centres undefined)
30	-8%	C=CCn1c(SCC(=O)Nc2nnc(CC)s2)nnc1-c1cccnc1
31	5%	CCn1cc(C(=O)OCC(=O)Nc2ccc(S(=O)(=O)N3CCCC3)cc2)c(=O)c2ccc(C)nc21
32	7%	CCn1c(SCC(=O)N2CCC(C)CC2)nnc1-c1ccccc1O
33	-3%	COc1cc(C)c(S(=O)(=O)NCc2ccc3c(c2)OCO3)cc1C
34	-17%	Cc1ccc(CSCCNC(=O)c2cccc([N+](=O)[O-])c2)cc1
35	4%	Nc1nc(SCc2ccc(Br)cc2)n[nH]1
36	-14%	CCc1cccc(C)c1NC(=O)CSc1nnc(N)s1
37	10%	COCCNC(=O)NC(=O)COC(=O)Cc1ccc2c(c1)OCCO2
38	1%	Cc1ccc(-n2nc3c(=O)n(CC(=O)NCCc4ccco4)nc(C)c3c2C)cc1
39	-3%	COc1ccc(Oc2ccc(N/C=C3\CCCC3=O)cc2)cc1
40	1%	O=C(Nc1ccc(F)c(Cl)c1)C1CCCN1S(=O)(=O)c1ccc(F)cc1 (centres undefined)
41	?	COc1c(O)cc2oc(-c3ccc(O)c(O)c3)cc(=O)c2c1O
42	-6%	CC(=O)c1ccc(NC(=S)NCCCN2CCOCC2)cc1
43	0%	COc1ccc(S(=O)(=O)N2CCOCC2)cc1N(C)S(=O)(=O)c1ccc(C)cc1
44	2%	CCOC(=O)Cn1cc(C#N)c2ccccc21
45	-10%	CC(CNC(=O)c1cc(COc2c(F)cccc2F)on1)Oc1cccnc1 (centres undefined)

Sorted by SMILES length (rising): part of the list above
#	VDR inh	SMILES
44	2%	CCOC(=O)Cn1cc(C#N)c2ccccc21
36	-14%	CCc1cccc(C)c1NC(=O)CSc1nnc(N)s1
42	-6%	CC(=O)c1ccc(NC(=S)NCCCN2CCOCC2)cc1
29	-4%	CC(=O)c1ccc(OCC(O)CN2CCc3ccccc3C2)cc1 (centres undefined)
32	7%	CCn1c(SCC(=O)N2CCC(C)CC2)nnc1-c1ccccc1O
37	10%	COCCNC(=O)NC(=O)COC(=O)Cc1ccc2c(c1)OCCO2
41	?	COc1c(O)cc2oc(-c3ccc(O)c(O)c3)cc(=O)c2c1O
33	-3%	COc1cc(C)c(S(=O)(=O)NCc2ccc3c(c2)OCO3)cc1C
34	-17%	Cc1ccc(CSCCNC(=O)c2cccc([N+](=O)[O-])c2)cc1
40	1%	O=C(Nc1ccc(F)c(Cl)c1)C1CCCN1S(=O)(=O)c1ccc(F)cc1 (centres undefined)
25	10%	Cc1ccc(NC(=O)C(C)OC(=O)Cn2[nH]c(=O)c3ccccc3c2=O)cc1 (centres undefined)
27	1%	Cc1cc(C(=O)OCC(=O)N2CC(=O)Nc3ccccc32)c(C)n1-c1ccccc1
43	0%	COc1ccc(S(=O)(=O)N2CCOCC2)cc1N(C)S(=O)(=O)c1ccc(C)cc1
31	5%	CCn1cc(C(=O)OCC(=O)Nc2ccc(S(=O)(=O)N3CCCC3)cc2)c(=O)c2ccc(C)nc21
24	5%	CN(C)CCCN(C(=O)c1ccc(S(=O)(=O)N2CCc3ccccc3C2)cc1)c1nc2c(F)cccc2s1

(more compounds)
#	VDR inh	SMILES
46	18%	COc1ccc(CNC(=O)CN(Cc2ccco2)C(=O)CNS(=O)(=O)c2ccc(F)cc2)cc1
47	-19%	CCCSc1nnc(N)s1
48	-5%	CCN(CC)S(=O)(=O)c1cc(NC(=O)C2Cc3ccccc3C(=O)O2)ccc1C (centres undefined)
49	3%	Cc1cc(=O)oc(C)c1C(=O)N[C@@H](Cc1ccccc1)C(=O)O
50	-10%	O=C(C1CC(=O)N(c2ccc3c(c2)OCCO3)C1)N1CCN(c2ccccc2)CC1 (centres undefined)
51	-17%	CCOC(=O)C1=C(C)N(CCCC(=O)O)C(=O)NC1c1ccccc1OS(=O)(=O)c1ccc([N+](=O)[O-])cc1 (centres undefined)
52	0%	O=C(CCC1CCCC1)NCCCNC(=O)CCC1CCCC1
53	-17%	NC(=O)CSc1nnc(Cc2ccc3c(c2)OCO3)n1C1CCCCC1
54	3%	Cc1cc(C)c(OCC(=O)N(Cc2ccc(N(C)C)cc2)CC2CCCO2)c(C)c1 (centres undefined)
55	20%	CC(Sc1nc2c(cc1C#N)CCCCC2)C(=O)O (centres undefined)
56	5%	O=C(CSc1oc(-c2ccco2)nc1S(=O)(=O)c1ccc(Br)cc1)c1ccccc1
57	-4%	COc1cc(OC)c(C2N(c3ccc(Cl)c(Cl)c3)C(=O)C3CCCN32)cc1OC (centres undefined)
58	5%	Cc1ccc(C)c(S(=O)(=O)N2CCN(C(=O)C3CCN(c4ncnc5sc(C)c(C)c45)CC3)CC2)c1
59	10%	COc1ccc(C)cc1NC(=O)c1ccc2c(c1)N(Cc1cccc(Cl)c1)C(=O)c1ccccc1S2=O (centres undefined)
60	-14%	N#CCCN1CCN(Cn2c3ccccc3c3ccccc32)CC1
61	20%	NNC(=O)CNC(=O)C12CC3CC(CC(C3)C1)C2
62	3%	O=C(Nc1ccc(N2CCN(C(=O)c3ccco3)CC2)c(Cl)c1)c1cc2ccccc2o1
63	-11%	CCN(CC(=O)Nc1ccc(NC(C)=O)cc1)C(=O)c1ccc2ccccc2c1
64	-25%	O=C(O)CCCN1C(=O)/C(=C\c2ccccc2OCc2ccccc2)SC1=S
65	-9%	CC1Cc2c([nH]c(=O)n(-c3ccccc3)c2=O)O1 (centres undefined)
66	-3%	C/C(=N/NC(=O)CSc1nc2ccccc2s1)c1ccncc1
67	-14%	Cc1cccc(N=Nc2c(O)[nH]c3ccc(F)cc23)c1
68	1%	O=C(Nc1ccc2c(c1)OCO2)c1ccccc1SCC(=O)N1CCCC1
69	28%	Cc1nc2c(c(N3CCOCC3)n1)OCC(=O)N2
70	-13%	CN(C(=O)c1nn(C)c2c1CSc1ccccc1-2)c1ccc(F)cc1
71	8%	Cc1ccc(CNc2ncnc3c2cnn3-c2ccc(C)cc2C)cc1
72	-4%	Clc1nc2c(ccc3ccccc32)[nH]1
73	-13%	CC(OC(=O)CC1Sc2ccccc2NC1=O)C(=O)N(C)Cc1ccccc1 (centres undefined)
74	18%	O=C(Nc1ccc(C(=O)N2CCN(c3ccccc3F)CC2)cc1)c1nsc2ccccc12
75	5%&11%	CC(CNC(=O)CCS(=O)(=O)c1cc2c(cc1Cl)NC(=O)CO2)c1ccccc1 (centres undefined)
76	2%	COC(=O)CN1C(=O)C2(C(C#N)=C(N)Oc3cc(C)oc(=O)c32)c2ccccc21 (centres undefined)
77	1%	Cc1ccccc1CSCC(=O)NNC(=S)NCC1CCCO1 (centres undefined)
78	-2%	O=S1(=O)CCOC[C@H](Cc2ccccc2)N1Cc1ccccc1Br
79	-2%	N#CCc1ccc(NC(=O)Cn2c(=O)oc3ccccc32)cc1
80	-4%	COc1ccc(Cl)cc1NC(=O)CN(C(=O)c1ccco1)C1CCCCC1
81	-12%	N#Cc1cc(-c2ccccc2)nnc1Sc1ccccc1
82	-1%	Cc1ccc(-c2nn(CC(=O)NCc3cc(-c4nn(C)c(=O)c5ccccc45)ccc3C)c(=O)c3ccccc23)cc1
83	10%	CN(C)/C=C/C(=O)c1cnc(-c2ccc(Cl)cc2)s1
84	-6%	CCN(CCO)C(=O)c1ccc2oc(Cc3ccc(Cl)cc3)nc2c1
85	-2%	CC(=O)C1C(c2ccc(F)cc2)c2c(noc2C)CC1(C)O (centres undefined)
86	-12%	O=C(C1CCCO1)N1CCN(S(=O)(=O)c2ccc(Br)cc2)CC1 (centres undefined)
87	-13%	Cn1c(CSc2nnc(SCc3ccccc3)s2)nc2ccccc21
88	18%	Cc1scc(CN2CCN(c3ccccc3F)CC2)c1C
89	4%	COc1ccc(-c2nc3ccc(N4CCCC4)cc3c(=O)[nH]2)cc1OC
90	-8%	CCc1noc(C)c1C(=O)Nc1cc(Cl)ccc1N1CCCC1
91	8%	Cc1ccc2cn[nH]c2c1[N+](=O)[O-]
92	7%	COCCNc1nc(-c2ccccc2)nc2c1oc1ccccc12
93	-10%	CCCN(CCC)CCNC(=O)c1cc2c(C)nc3ccccc3c2o1
94	6%	COc1cccc(NC(=O)c2nnn(Cc3ccc(Br)cc3F)c2N)c1
95	-17%	CC(C)CNc1oc(-c2ccco2)nc1C#N
96	7%	O=C(NCc1ccc(Cl)cc1)c1cccc(S(=O)(=O)N2CCCC2)c1
97	-22%	CCOC(=O)c1cc(=O)c2ccc(OCc3ccccc3)cc2o1
98	-18%	O=C(CCC(=O)c1cccs1)OCC(=O)c1ccc(F)cc1
99	-21%	COc1cc(/C=C/C(=O)Nc2nc3ccc(S(=O)(=O)NC(C)C)cc3s2)cc(OC)c1OC
100	9%	O=C1c2ccccc2C(=O)N1CCCC(=O)N1CCCc2ccccc21
101	11%	O=C(CSc1ncnc2sccc12)NC1CCS(=O)(=O)C1 (centres undefined)
102	10%	CCCC1S/C(=N/N=C/c2ccco2)NC1=O (centres undefined)
103	4%	c1ccc(Oc2nc(NC3CCCCC3)c3[nH]cnc3n2)cc1
104	1%	Cc1ccc(CNC(=O)CSc2c3c(nc4ccc(Cl)cc24)CCCC3)cc1
105	7%	CN(Cc1ccon1)C(=O)CC1C(=O)NCCN1CC1CCCCC1 (centres undefined)

Next records.
#	VDR inh	SMILES
106	-15%	O=C(c1cc(-c2ccccc2O)on1)N1CCCCC1
107	9%	CCCCNC(=O)CSc1nc2cc3c(cc2c(=O)n1CCCN(CC)CC)OCO3
108	3%	Cc1ccccc1OCC(=O)NNC(=O)Cc1ccc(S(=O)(=O)N2CCOCC2)s1
109	3%	CC1O[C@@H](O[C@H](C)CC[C@@H](C)O[C@H]2OC(C)[C@@H](O)C[C@H]2O)C(O)C[C@H]1O (some centres undefined)
110	-22%	COC(=O)C1=C(C(=O)OC)SC2(S1)C(C(=O)OC)=C(C(=O)OC)SC1=C2c2cccc(C)c2NC1(C)C
111	-3%	O=C(CCn1cccc1)Nc1ccc(OC(F)(F)F)cc1
112	?	COc1cccc(CNC(=O)CCC2CCCN(C(=O)c3cc(C)on3)C2)c1 (centres undefined)
113	20%	CCN1/C(=C/C(=O)c2ccco2)Sc2ccccc21
114	79µM*	O=C(O)Cc1sc(Nc2ccccc2)nc1-c1cccs1
115	-15%	CCN1CN(Cc2ccco2)CNC1=S
116	0%	Cc1ccc(S[C@@H](CCN2CC[C@H](O)CCC2=O)c2ccccc2)cc1
117	-13%	O=C(O)C1CC=C(Cl)CC1C(=O)NC1CCCCC1 (centres undefined)
118	-11%	CCS(=O)(=O)N1Cc2ccccc2CC1C(=O)N1CCN(c2cccc(C)c2C)CC1 (centres undefined)
119	5%	NC(=O)CSc1ccc(-c2ccc(F)cc2)nn1
120	5%	Cc1ccc(OCC(=O)Nc2ccc(N3CCOCC3)cc2)c([N+](=O)[O-])n1

Screens deposited in PubChem by National Center for Advancing Translational Sciences (NCATS).
